Compound activity from PubChem.
MT1-MMP act inh = blockers of MT1-MMP proenzyme processing, primary screen, HT1080 RFP-PRO-GFP cells, GFP/RFP fluorescence; Matrix metalloproteinase-14 (Homo sapiens), P50281; GFP/RFP ratio fluorescence, overnight; percent of plate control window, DMSO zero; GFP/RFP ratio change, % at 20 µM; 360,000 compounds, 0.061% hits;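 active means GFP/RFP ratio change of at least 30% with cell ATP level not reduced by more than half and red fluorescence within 50% of control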; further: strong numbers were not always called active
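Material – HT1080 RFP-PRO-GFP cells · Control set – DMSO wells and RFP-L50D-GFP cells · Incubation – overnight cell settling, then overnight compound exposure, 37 °C, 5% CO2 · Compound dosing – single-point 20 µM compound, 1% DMSO · Read-out – GFP/RFP fluorescence ratio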
CSC inhib = cancer stem cell viability inhibitors, primary screen, luminescence; AID 2717, 2010; 300,000 compounds, 1.1% hits; cancer stem cell-like cells viability; inhibition, % at 7.5 µM;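 active means mean at 75% or more and at least half the replicates too; inconclusive means mean and replicates disagree; tested in HMLE shEcad cells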;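 further: 0% = median of negative and 100% = median of positive control wells; the first replicate is given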
Env fusion inh = inhibitors of HIV-1 Env-driven cell-cell fusion, primary screen, HeLa-JRFL effector, CEM21 target cells, luciferase | inhibition, % at 12.3 µM | 360,000 compounds, 1.1% hits;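 active means mean replicate inhibition score of at least 50 and every replicate individually at or above 50; inconclusive means only one of the two criteria met; inactive means mean below 50 and not all replicates reaching 50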;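 further: 0% = plate neutral controls and 100% = maraviroc near 300 nM; one replicate is shown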
eIF4H inh = human eIF4H binding inhibitors, primary screen, translation initiation inhibitor project, biochemical, uHTS, fluorescence polarization; inhibition, % at 35 µM; 290,000 compounds, 0.94% hits; Eukaryotic translation initiation factor 4H (Homo sapiens), Q15056; eIF4H fluorescence polarization binding assay;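 active means 50% or more with normal probe brightness, or confirmed in later tests; inconclusive means above 50% with abnormal brightness, or retests that disagree; inactive means below 50% or failed in later tests; about a fifth of its hits are not listed in these tables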;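 further: calls also rest on retests at 20 µM and on dose response follow-up; 0% = protein and probe with vehicle and 100% = probe without protein; strong numbers were not always called active; many hits fall short of the cut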
Rce1 inhib = yeast Rce1p protease inhibitors, primary screen, biochemical, fluorescence, cell-free homogeneous; CAAX prenyl protease 2 (Saccharomyces cerevisiae (strain ATCC 204508 / S288c)), Q03530; yeast membranes, quenched prenylated peptide cleavage fluorescence; calls only; 290,000 compounds, 0.27% hits;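 active means fall in fluorescence gain of 50% or more versus controls, with final raw signal at or below 3038400; inconclusive means same 50% fall but final raw signal above 3038400; inactive means fall in fluorescence gain under 50%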;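 further: plate controls were neutral control wells for no effect and wells lacking membranes for full effect; tested at 10 µM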
Yeast UUG start = modulators of yeast start codon fidelity, primary screen, whole organism, S. cerevisiae, single point, plate reader | activity score, % at 18.7 µM | S. cerevisiae UUG-firefly luciferase reporter, luminescence/redox ratio | 350,000 compounds, 0.13% hits;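 active means replicate mean at a twofold rise or more, about +100% in these data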;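 further: firefly luciferase made from a UUG start codon reports start codon fidelity; reporter light over untreated wells divided by growth signal over untreated wells; some hits fall short of that in this replicate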
PABP FP inh = PABP poly(A) RNA binding inhibitors, primary screen, biochemical, fluorescence polarization, uHTS; AID 2014, 2009; inhibition, % at 35 µM; 290,000 compounds, 1% hits; Polyadenylate-binding protein 1 (Homo sapiens), P11940;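 active means 50% or more with normal probe brightness, or confirmed in later tests; inconclusive means above 50% with abnormal brightness, or retests that disagree; inactive means below 50% or failed in later tests; about a fifth of its hits are not listed in these tables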;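 further: calls also rest on retests at 20 µM and on dose response follow-up; controls were probe without protein and protein plus probe with vehicle; some compounds called inactive have numbers as strong as hits; many hits fall short of the cut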
Target sequence (P11940 whole entry, looked up): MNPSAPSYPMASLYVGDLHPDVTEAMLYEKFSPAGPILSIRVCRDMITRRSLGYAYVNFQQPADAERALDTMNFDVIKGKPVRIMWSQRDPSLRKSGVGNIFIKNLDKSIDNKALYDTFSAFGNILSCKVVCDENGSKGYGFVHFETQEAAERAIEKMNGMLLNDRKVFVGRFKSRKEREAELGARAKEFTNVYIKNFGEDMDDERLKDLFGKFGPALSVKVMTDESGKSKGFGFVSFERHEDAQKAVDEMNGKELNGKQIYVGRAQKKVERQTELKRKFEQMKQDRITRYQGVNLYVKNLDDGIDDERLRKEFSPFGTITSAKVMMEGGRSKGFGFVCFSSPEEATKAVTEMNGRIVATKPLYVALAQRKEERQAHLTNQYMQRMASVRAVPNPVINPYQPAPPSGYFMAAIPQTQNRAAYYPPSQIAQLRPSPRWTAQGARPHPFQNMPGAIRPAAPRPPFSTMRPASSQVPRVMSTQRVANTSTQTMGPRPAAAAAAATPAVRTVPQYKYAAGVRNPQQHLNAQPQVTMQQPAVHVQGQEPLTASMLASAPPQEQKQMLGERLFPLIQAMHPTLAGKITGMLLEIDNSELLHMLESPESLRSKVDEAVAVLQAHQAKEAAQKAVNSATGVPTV
MT1-MMP act inh RFP = also measured in MT1-MMP act inh; calls as there; RFP signal change, %; measured here: RFP expression control read;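 0 = vehicle wells; hits needed this value within 50% of zero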
The depositor's hits bear a star; i = inactive; ? = inconclusive; / = not tested or not shown; & = joins results of further samples; [ ] = remark or other dose. The list is partial. The share of hits here may be higher or lower than overall.

SMILES	MT1-MMP act inh	MT1-MMP act inh RFP	CSC inhib	Env fusion inh	eIF4H inh	Rce1 inhib	Yeast UUG start	PABP FP inh
CCN(CC)S(=O)(=O)c1cccc(N=NC2=C(O)CCCC2=O)c1	5	3	3	27	38	i	/	4
O=C(/C=C/c1ccco1)N1CCN(C/C=C/c2ccccc2)CC1	-4	-3	8	-4	10	i	/	-14
COc1ccc(NC2=NCCCCC2)cc1	-1	1	-15	1	-20	i	-13	-2
O=C(Cn1cc(C(F)(F)F)ccc1=O)NCCc1ccc(Cl)cc1Cl	3	6	10	-2	-10	i	/	3
CC(=O)N1CCc2c(sc(NC(=O)Cc3ccccc3)c2C(N)=O)C1	2	2	6	-4	-12	i	-4	-1
COc1ccc(CNC(=O)c2ccc3c(=O)n(CCCN4CCCC4=O)c(=S)[nH]c3c2)cc1	-2	-9	5	13	-12	i	/	-1
NC(N)=Nc1nc(-c2ccccc2)c2cc(F)ccc2n1	-19	-9	7	20	6	i	-13	8
Clc1ccc2nc(C3CCN(Cc4ccccc4)CC3)[nH]c2c1	-4	11	14	-19	-2	i	-25	4
O=C(CSc1nccn1Cc1ccco1)Nc1ccccc1	3	2	-12	/	-1	i	-12	6
N[C@@H](Cc1c[nH]c2ccccc12)C(=O)O	/	/	/	/	-18	i	/	-4
COc1cc(/C=C2\SC(N3CCC(C)CC3)=NC2=O)ccc1O	-24	7	13	-11	-11	i	-10	-22
O=C(NCC1CCCO1)c1ccc(COc2ccccc2)o1 (stereo not drawn)	0	2	0	8	/	i	/	/
CCCCN(CCCC)Cc1ccc(N)cc1	4	5	1	3	2	i	-10	-8
C[C@H](CO)N1C[C@H](C)[C@@H](CN(C)C(=O)Nc2ccc3c(c2)OCO3)Oc2c(NC(=O)C3CC3)cccc2C1=O	2	2	/	0[16.7 µM]	/	/	15&7	/
COc1cc(/C=C2\CC(C(C)(C)C)C/C(=C\c3cc(OC)c(OC)c(OC)c3)C2=O)cc(OC)c1OC (stereo not drawn)	-9	-25	107*	-112	-5	i	-7	-17
CC(C)Oc1cccc(C(=O)C2CCCN(C(=O)c3ccoc3)C2)c1 (stereo not drawn)	1	-3	-8	-2	-4	i	-7	-8
COc1ccc(CCn2c(=N)c(C(=O)NCC3CCCO3)cc3c(=O)n4ccccc4nc32)cc1 (stereo not drawn)	-5	-1	-2	17	-1	i	-4	1
Cc1cc(Sc2nc(N(C)C)nc(N(C)C)n2)nc(Cl)n1	-1	-4	-1	-3	-5	i	-12	3
COc1ccc(N(CC(=O)Nc2cc(OC)ccc2OC)S(=O)(=O)c2c(C)nn(C)c2C)cc1	-2	-1	-4	2	-4	i	-12	0
COC(=O)C1=CN(c2ccc(Cl)cc2)C=C(C(=O)OC)C1c1ccc([N+](=O)[O-])cc1	-2	-2	17	51	-9	i	-4	-2

An excerpt of these results, with each value named.
> C[C@H](CO)N1C[C@H](C)[C@@H](CN(C)C(=O)Nc2ccc3c(c2)OCO3)Oc2c(NC(=O)C3CC3)cccc2C1=O
- MT1-MMP act inh = 2
- MT1-MMP act inh RFP = 2
- CSC inhib = /
- Env fusion inh = 0[16.7 µM]
- eIF4H inh = /
- Rce1 inhib = /
- Yeast UUG start = 15&7
- PABP FP inh = /
> COc1cc(/C=C2\CC(C(C)(C)C)C/C(=C\c3cc(OC)c(OC)c(OC)c3)C2=O)cc(OC)c1OC (stereo not drawn)
- MT1-MMP act inh = -9
- MT1-MMP act inh RFP = -25
- CSC inhib = 107*
- Env fusion inh = -112
- eIF4H inh = -5
- Rce1 inhib = i
- Yeast UUG start = -7
- PABP FP inh = -17

Remaining list, next part:
SMILES	MT1-MMP act inh	MT1-MMP act inh RFP	CSC inhib	Env fusion inh	eIF4H inh	Rce1 inhib	Yeast UUG start	PABP FP inh
CCN(CC)S(=O)(=O)c1ccc(N2CCOCC2)c(NC(=O)COc2ccc(C#N)cc2)c1	1	0	/	28	-2	i	-26	-8
Cc1ccc2c(c1)/C(=N/O)CCS2	2	0	-4	2	-4	i	10	0
CCN(CC)S(=O)(=O)c1cccc(C(=O)NN2Cc3ccccc3C2=N)c1	-2	5	-4	3	0	i	/	-13
CCOC(=O)CN1C(=N)N(c2nc(NC(C)C)nc(OC)n2)CC1=O	-1	0	-4	4	-3	i	-11	12
O=C(Nc1ncc(C(F)(F)F)cc1Cl)C1COc2ccccc2O1 (stereo not drawn)	4	2	-5	/	-8	i	-14	-10
O=C(C[C@H]1C[C@@H]2c3cc(NC(=O)Nc4ccccc4F)ccc3O[C@@H]2[C@H](CO)O1)NCc1ccccn1	5	2	/	11[16.7 µM]	/	/	-2&-14	/
O=C(c1ccccc1)c1ccc(C(=O)N2CCN(c3ccc(F)cc3)CC2)o1	2	-13	-11	/	-8	i	9	3
COc1ccc(CNc2ccc([N+](=O)[O-])cn2)cc1	9	0	2	-22	2	i	-14	-2
O=C(CSc1nc2ccccc2c(=O)n1CC1CCCO1)Nc1ccc(F)cc1 (stereo not drawn)	2	0	-8	13	-2	i	9	-2
CCCc1cc(=O)[nH]c(SCC(=O)NC)n1	2	8	-6	-5	-8	i	-8	-10
Cn1c(SCCN2CCCCC2)nnc1-c1ccccc1Br	0	0	-10	3	1	i	/	11
COc1cc(C(=O)NCCCNC(=O)c2cc(OC)c(OC)c(OC)c2)cc(OC)c1OC	1	0	0	0	/	i	5	/
CCOC(=O)c1c(SCC(=O)Nc2nccs2)nc(C)c(C)c1C	0	-2	0	-39	-2	i	11	6
CN(C)c1ccc(-c2nnn(CC(=O)Nc3ccc4c(c3)OCCO4)n2)cc1	2	5	2	4	0	i	/	7
Cc1nc2ccc(N)cc2s1	0	6	-3	-2	-6	i	-12	7
CC1(C)CC2(CCO1)OC(=O)CC2C(=O)NCCc1ccccc1 (stereo not drawn)	3	4	-13	24	-19	i	-21	-2
O=[N+]([O-])c1ccc(S(=O)(=O)CC2CSc3nc4ccccc4n32)cc1 (stereo not drawn)	/	/	-6	/	2	i	-5	-10
COc1ccccc1C(=O)NNC(=O)CCN1C(=O)/C(=C\c2ccccc2)SC1=S	1	3	-19	14	-1	i	/	4
CCOc1cccc2sc(NN)nc12	-2	0	/	20	-4	/	/	-8
CC(C)N1CCC(N2CCN(Cc3cccc4nonc34)CC2CCO)CC1 (stereo not drawn)	-1	5	1	-14	7	i	/	-10
O=C(NNC(=O)c1csc(-c2cccnc2)n1)Nc1ccc(Cl)cc1	0	-6	-19	-24	0	i	/	2
O=C(c1ncn(Cc2ccccc2)c1C(=O)N1CCc2ccccc2C1)N1CCc2ccccc2C1	-4	-2	29	15	/	/	-9	/
O=C(NC1CCCC1)C(c1ccsc1)N(Cc1ccco1)C(=O)Cc1cccs1 (stereo not drawn)	-4	-5	-7	/	5	i	4	2
O=C(CSc1nnc(-c2cccnc2)s1)Nc1ccccc1	3	-1	-9	-1	-16	/	-24	4
CCCn1c(SCC(=O)NCC)nc2sc3c(c2c1=O)CCC3	1	1	-15	4	-8	i	-7	7
Cc1ccccc1Nc1nc(N)nc(CSc2nnc3ccccn23)n1	0	5	-7	1	-2	i	-16	13
COc1ccc(N2CCN(C(=O)C3CCCO3)CC2)cc1 (stereo not drawn)	8	2	6	/	2	i	-6	-1
O=C(NC1CCN(Cc2ccccc2)CC1)c1cc(Br)c(Br)[nH]1	4	0	3	-11	-2	i	/	-5
Cc1ccc(S(=O)(=O)NC(=O)C2(C)CCN2C(=O)CC2CCCC2)nc1 (stereo not drawn)	3	6	/	-18	/	/	7	/
Cc1cc(O)ccc1C1(c2ccc(O)cc2C)OC(=O)c2ccccc21	0	2	11	/	-5	i	444*	9
Cc1cc(C)nc(NC(=O)Cc2ccc(Cl)cc2)c1	-12	-8	-3	-41	1	i	-15	-6
CC(=O)Nc1cccc(NC(=O)C(C)N2c3cccc4cccc(c34)S2(=O)=O)c1 (stereo not drawn)	-2	-5	-4	4	-12	i	4	7
Cc1ccc(S(=O)(=O)NCC(C)NC(=O)CN2CCOCC2)cc1 (stereo not drawn)	3	3	-3	-6	3	i	-6	5
C=CC[N+]1(CC#Cc2ccccc2)CCCC1	3	3	-12	-6	-5	i	/	6
CC(C)(C)OC(=O)[C@H](Cc1ccccc1)NC(=O)c1nc[nH]c1C(=O)NCCCCCN	5	1	7	-4	/	i	-2	/
COCCCNC(=S)N1CCN(c2nc3ccccc3s2)CC1	1	-4	-6	?	-10	i	/	4
CCN(C(=O)CSc1nc2ccccc2c(=O)n1-c1cccc(C)c1)C1CCS(=O)(=O)C1 (stereo not drawn)	-2	2	-8	13	2	i	/	17
CCn1c(SCC(=O)c2ccc(F)cc2)nnc1-c1ccoc1C	10	3	-12	-106	-7	i	-20	-2
CCOc1cccc2cc(C(N)=O)c(=N)oc12	-2	5	/	-4	-1	/	-8	-6
Cc1cc(C(=O)NNS(=O)(=O)c2ccc(F)cc2)nn1C(C)(C)C	-3	2	-4	8	-11	i	-18	0
Cc1ccc(NC(=O)c2ccccc2-c2cc(C)no2)cc1	0	3	-3	-25	7	i	-10	18
C=CCOC(=O)C1=C(C)OC(N)=C(C#N)C1c1ccco1 (stereo not drawn)	-2	5	-13	5	12	i	/	1
COc1ccc(OCC#CCN2CC(C)OC(C)C2)cc1 (stereo not drawn)	0	1	-6	20	13	/	/	-10

Grouped by structure, those above with an aryl thioether with sulfur outside any ring (11)
SMILES	MT1-MMP act inh	MT1-MMP act inh RFP	CSC inhib	Env fusion inh	eIF4H inh	Rce1 inhib	Yeast UUG start	PABP FP inh
O=C(CSc1nccn1Cc1ccco1)Nc1ccccc1	3	2	-12	/	-1	i	-12	6
Cc1cc(Sc2nc(N(C)C)nc(N(C)C)n2)nc(Cl)n1	-1	-4	-1	-3	-5	i	-12	3
O=C(CSc1nc2ccccc2c(=O)n1CC1CCCO1)Nc1ccc(F)cc1 (stereo not drawn)	2	0	-8	13	-2	i	9	-2
CCCc1cc(=O)[nH]c(SCC(=O)NC)n1	2	8	-6	-5	-8	i	-8	-10
Cn1c(SCCN2CCCCC2)nnc1-c1ccccc1Br	0	0	-10	3	1	i	/	11
CCOC(=O)c1c(SCC(=O)Nc2nccs2)nc(C)c(C)c1C	0	-2	0	-39	-2	i	11	6
O=C(CSc1nnc(-c2cccnc2)s1)Nc1ccccc1	3	-1	-9	-1	-16	/	-24	4
CCCn1c(SCC(=O)NCC)nc2sc3c(c2c1=O)CCC3	1	1	-15	4	-8	i	-7	7
Cc1ccccc1Nc1nc(N)nc(CSc2nnc3ccccn23)n1	0	5	-7	1	-2	i	-16	13
CCN(C(=O)CSc1nc2ccccc2c(=O)n1-c1cccc(C)c1)C1CCS(=O)(=O)C1 (stereo not drawn)	-2	2	-8	13	2	i	/	17
CCn1c(SCC(=O)c2ccc(F)cc2)nnc1-c1ccoc1C	10	3	-12	-106	-7	i	-20	-2
